PrP 5UTR inh: inhibition of PrP 5' UTR reporter expression; cell-based PrP 5' UTR mRNA reporter, plate reader; inhibition, % (test concentration not listed); 340,000 compounds, 0.35% hits; AID 488862;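 active = every replicate at 50% or more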;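 also: 0 = median of the neutral control wells; tested in H4 reporter cells; numbers are from one replicate; inactives centre near -14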
Bead autofluor: flagged as autofluorescent in microsphere protease counterscreen | compound autofluorescence counterscreen, microsphere flow cytometry; hits give high values | fluorescence intensity (no concentration beside the values) | 360,000 compounds, 3.1% hits;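 active = at least 3 SD above the mean of all compounds, about 16000 in these data; inconclusive = too few beads counted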;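 also: 100 nL of 1 mM stock went into each well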
Mtb hypoxia inh: reduces hypoxia-regulated biosensor signal in M. tuberculosis; fluorescence inhibition, % (no concentration beside the values); 300,000 compounds, 0.1% hits; M. tuberculosis hypoxia-regulated fluorescent reporter, fluorescence;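 active = 35 to 45% if threefold the growth effect, above 45% if 1.5-fold the growth effect; inactive = the rest, general growth blockers included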;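 also: wells of about 50 µL received 100 nL stock; 0% = vehicle wells and 100% = reference inhibitor wells; whole bacteria with a GFP reporter of the hypoxia response; strong numbers were not always called active; many hits fall short of the cut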
BJeLR lethal: BJeLR cell viability loss. 300,000 compounds, 0.17% hits. inhibition, % (concentration not given with the values). AID 1554. BJeLR (HRASV12) viability, CellTiter-Glo ATP luminescence, 48 h; reference of the scale not given here;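 active = replicate mean above 50%; inconclusive = above 50% but judged a plate artefact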;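 also: 50 nL library stock added to about 25 µL; numbers are from one replicate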
ugtP null kill: growth inhibition of S. aureus ugtP deletion strain. 330,000 compounds, 0.54% hits. S. aureus RN4220 ugtP deletion, OD600 growth, 16 h; some inactives read as strong as hits. growth inhibition, % (concentration not given with the values);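 active = z-score under -3 and OD600 up to 0.15 on both plates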;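 also: plate controls were untreated wells for no effect and antibiotic for full effect; wells of about 80 µL received 100 nL stock; the first replicate is given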
Sa RN4220 lethal: S. aureus RN4220 growth inhibition | 330,000 compounds, 0.33% hits | OD600, 16 h | inhibition, % (no concentration beside the values) | AID 1259311;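 active = z-score of -3 or lower and OD600 up to 0.18 on both plates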;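 also: plate controls were untreated cells for no effect and reference antibiotic for full effect; stock transfer was 100 nL into about 80 µL; one replicate is shown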
Mtb hypoxia inh growth: second read-out of Mtb hypoxia inh, no call of its own (marks repeat the call); growth inhibition, %; measured here: M. tuberculosis growth (absorbance);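 0% = vehicle and 100% = reference antibiotic; read after six days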
* marks the source's active call; other numbers are inactive results; ? = inconclusive; nt = not tested or not shown; & = joins results of further samples. Rows are unselected; overall some 4% were active at least once.

SMILES | PrP 5UTR inh | Bead autofluor | Mtb hypoxia inh | Mtb hypoxia inh growth | BJeLR lethal | ugtP null kill | Sa RN4220 lethal
Cc1c(N=C2Nc3cccc4cccc2c34)c(=O)n(-c2ccccc2)n1C | -18&-17 | 3986&6313 | 10&9 | 4&4 | -4 | 4&11 | 3.4&-4.0
Cc1ccc(C)c(NC(=S)N/N=C2\CCc3ccccc32)c1 | -30 | 4343 | nt | nt | 17 | nt | nt
CCOC(=O)c1cnn(-c2ncnc3c2cnn3Cc2ccccc2)c1N | nt | nt | nt | nt | -1 | 3 | 3.4
Cc1ccc(NC(=O)Cn2cnc3ccccc32)cc1C | -17 | 4465 | -2 | -1 | 16 | -3 | 2.0
CCOc1cc(C(C#N)N2CCOCC2)ccc1OC (stereo not drawn) | -13 | 2551 | nt | nt | -8 | -1 | -4.6
O=C(CSc1nnc(-c2ccco2)n1CC1CCCO1)NC1CCCC1 (stereo not drawn) | -23 | 7706 | 1 | -3 | 11 | 5 | 0.6
C=C(C)CSc1ncc(-c2cccc(C(F)(F)F)c2)cn1 | -29 | 10262 | 0 | 11 | 8 | 24 | 2.8
Cc1noc(C)c1-c1nc(CS(=O)(=O)c2ccccc2)no1 | -11 | 3310 | 13 | 0 | -1 | 5 | 3.4
Cc1cc(-c2n[nH]c(=S)n2/N=C/C(Br)=C/c2ccccc2)n[nH]1 | -46 | 2542 | nt | nt | 14 | nt | nt
O=C(NC1CCCCC1)c1ccc(COCC(F)(F)F)o1 | -12 | 3135 | 14 | 8 | 3 | 8 | -2.3
O=C(CN(C1CCCCC1)S(=O)(=O)c1ccccc1)NCc1ccco1 | -16 | 11261 | 4 | 2 | -7 | -3 | -1.2
COc1ccc(CN(C)CC(=O)N2CCc3ccccc3C2)cc1 | -20 | 3825 | 9 | 11 | -2 | 3 | 1.8
O=C(COC(=O)c1ccc2ccccc2n1)Nc1cccc(S(=O)(=O)NC2=NCCCCC2)c1 | -34 | 7734 | 10 | 4 | 2 | 2 | 0.4
COc1ccccc1OCCC(=O)OCC(=O)Nc1cc(S(=O)(=O)N(C)C)ccc1Cl | -54 | 2172 | -9 | 2 | 12 | 2 | 1.9
O=S(=O)(c1cccc(-c2cn3cc(Cl)ccc3n2)c1)N1CCOCC1 | -14 | 10596 | -7 | 0 | 1 | -5 | 5.4
COC(=O)[C@@]1(Cc2ccccc2)[C@H]2C(=O)N(C)C(=O)[C@H]2[C@H]2CN=C(SCc3ccc(C)cc3)N21 | -16 | 4184 | -6 | 0 | nt | -9 | 3.5
O=C(NC1=NCCS1)c1nc(-c2ccccc2)n(-c2ccccc2)n1 | -10 | 2276 | nt | nt | -3 | 5 | 0.4
CCN(CC)C(=O)Cn1c(=O)n(-c2ccccc2)c(=O)n1CC(=O)N(CC)CC | -14 | 8091 | 11 | 3 | 6 | 0 | 1.2
O=C1C(=O)N(Cc2ccco2)C(c2cccs2)/C1=C(\O)c1cccc([N+](=O)[O-])c1 (stereo not drawn) | -17 | 5362 | 4 | 3 | -1 | 12 | 7.6
Cc1ccccc1NC(=S)N1CCCC1 | -3 | 2497 | 4 | 2 | 12 | 8 | 2.9
C/C(CC(=O)Nc1ccc(Cl)c(C(F)(F)F)c1)=N\NC(=O)c1cc2ccccc2cc1O | -39 | 10824 | nt | nt | 15 | nt | nt
COc1ccc(/C(C)=N/N=C2/NC(=O)CC(C(=O)O)S2)cc1F (stereo not drawn) | 0 | 3616 | nt | nt | 9 | nt | nt
CCN1CCN(Cc2ccc(NC(=O)Nc3ccccc3OC)cc2)CC1 | -59 | 5647 | nt | nt | 10 | -6 | 5.0
O=C(CNc1ccc2ccccc2c1)N/N=C/c1cc2ccccc2nc1Cl | -35 | 8766 | nt | nt | -4 | nt | nt
O=C(O)c1ccc(/C=N/Nc2nc3ccccc3[nH]2)cc1 | -27 | 4241 | nt | nt | 8 | nt | nt
CCCS(=O)(=O)c1ccc(COC(=O)Cc2ccc([N+](=O)[O-])cc2)cc1 | -21 | 3645 | 8 | 1 | 0 | 6 | 4.9
COc1ccccc1S(=O)(=O)Cc1ccc(C(=O)NCCN2CCCCCC2)o1 | -11 | 6866 | nt | nt | -10 | 8 | 0.8
Cc1cc(C)cc(N(C(=O)c2csnn2)C(C(=O)NC(C)(C)C)c2ccncc2)c1 (stereo not drawn) | -9 | 4214 | 8 | -1 | -3 | 1 | 1.2
Cc1ccn(C(C)CC(=O)Nc2ccc(-c3ccno3)cc2)n1 (stereo not drawn) | -9 | 4668 | nt | nt | 1 | nt | nt
COc1ccc(C)cc1NC(=O)CCCN1C(=O)CCC1=O | -21 | 8106 | 1 | 6 | -6 | 9 | 5.9
CC1CN(S(=O)(=O)c2csc(C(=O)Nc3ccccc3)c2)CC(C)O1 (stereo not drawn) | -8 | 5840 | 4 | 9 | 9 | -1 | 1.8
CC(NC(=O)CN(C)CC(=O)Nc1ccc(Cl)c(C(F)(F)F)c1)c1ccccc1 (stereo not drawn) | -2 | ? | 5 | 0 | -9 | -7 | 2.9
Cc1ccc(S(=O)(=O)NC(C)(C)CSc2ccccn2)cc1 | -16 | 2892 | 2 | 9 | -6 | 0 | -1.3
O=C(c1ccc(-n2cccn2)cc1)N1CCc2ccccc2C1 | -10 | 2898 | 15 | 4 | -7 | 8 | 3.6
COc1ccc2c(c1)CCCN2C(N)=O | 5 | 9284 | 1 | -2 | -13 | 14 | 3.1
CC(=NNC(=O)Cn1nc(C)cc1C)c1ccc([N+](=O)[O-])cc1 | nt | nt | -5 | -13 | nt | 0 | 0.0
CCOC(=O)C1=C(O)C(=O)N(Cc2cccnc2)C1c1ccc(C)cc1 (stereo not drawn) | -19 | 3551 | -5 | -4 | 14 | -3 | 23
COc1ccc(CCC(=O)NC2=NCCS2)cc1OC | -19 | 4712 | nt | nt | 6 | -11 | -2.7
Cc1ccc(C)c(N2CC(O)(c3cccs3)[N+]3=C2CCCC3)c1 (stereo not drawn) | -4 | 4089 | -3 | 9 | 6 | -5 | 0.6
CC(=O)C1=C(C)Nc2ncnn2C1c1ccccc1OCc1ccccc1 (stereo not drawn) | -36 | 2836 | 4 | 8 | -6 | -14 | -9.7
COc1ccccc1CNC(=O)C/C(C)=N/NC(=O)Cc1ccc(Cl)cc1 | -12 | 3907 | nt | nt | 11 | nt | nt
CC1=CCC2C(=O)N(c3cccc(C(=O)NC(C)c4ccccc4)c3)C(=O)C2C1 (stereo not drawn) | -33 | 4223 | 17 | 4 | -2 | 8 | 6.4
COC(=O)C[C@H]1c2cc(C(F)(F)F)ccc2S(=O)(=O)N1c1ccc(N(C)C)cc1 | -2 | 3068 | nt | nt | -4 | nt | nt
c1ccc(-n2cnnc2SCc2cn3ccsc3n2)cc1 | -19 | 3771 | 17 | 8 | -2 | 2 | 4.5
Cc1cc(C(=O)N/N=C/c2cn[nH]c2-c2ccccc2)cs1 | -9 | 2405 | nt | nt | 13 | nt | nt

Next part; the last four above are carried over.
SMILES | PrP 5UTR inh | Bead autofluor | Mtb hypoxia inh | Mtb hypoxia inh growth | BJeLR lethal | ugtP null kill | Sa RN4220 lethal
CC1=CCC2C(=O)N(c3cccc(C(=O)NC(C)c4ccccc4)c3)C(=O)C2C1 (stereo not drawn) | -33 | 4223 | 17 | 4 | -2 | 8 | 6.4
COC(=O)C[C@H]1c2cc(C(F)(F)F)ccc2S(=O)(=O)N1c1ccc(N(C)C)cc1 | -2 | 3068 | nt | nt | -4 | nt | nt
c1ccc(-n2cnnc2SCc2cn3ccsc3n2)cc1 | -19 | 3771 | 17 | 8 | -2 | 2 | 4.5
Cc1cc(C(=O)N/N=C/c2cn[nH]c2-c2ccccc2)cs1 | -9 | 2405 | nt | nt | 13 | nt | nt
CCCn1c(=O)c2ccccc2n2c(SCC(=O)N3CCc4ccccc4C3)nnc12 | -19 | 9890 | -6 | 0 | -11 | -1 | -0.2
O=C(CCN1C(=O)c2ccccc2C1=O)NNC(=O)c1ccc(Cl)cc1Cl | -24 | 1965 | 3 | -4 | -31 | 4 | 1.7
COc1ccc(Cl)cc1NC(=O)NCc1ccco1 | -16 | 2318 | 15 | 7 | -3 | 4 | -1.1
COc1cc(NC(=O)C2CCCCC2)c(OC)cc1NC(=O)c1ccco1 | -23 | 7119 | 6 | 8 | -1 | -9 | 4.1
Cc1cccc(Cn2c(CN3CCN(Cc4ccccc4)CC3)nc3c2c(=O)[nH]c(=O)n3C)c1 | -12 | 5944 | -2 | 9 | 8 | 13 | 6.7
Cc1ccc(-n2ncc(-c3nn[nH]n3)c2N)cc1 | -9 | 3143 | 12 | 8 | -6 | 5 | 2.4
CCOC(=O)c1ccc(NC(=S)NC(=O)C2CCCC2)cc1 | -7 | ? | 21 | 33 | -14 | 57 | 4.4
O=[N+]([O-])c1cccc(C2(O)COc3ccccc3O2)c1 (stereo not drawn) | 0 | 3217 | 7 | -1 | 7 | 7 | 9.4
Cc1cccc2cc(COC(=O)C3CCCCC3)c(=O)[nH]c12 | -13 | ? | 13 | 11 | -3 | -4 | 7.4
O=C(C[C@H]1C(=O)N(C2CCCCC2)C[C@@H]1Cc1ccccc1)Nc1ccccc1 | -18 | 4426 | nt | nt | 1 | nt | nt
CCOC(=O)c1ccc(-n2ccnc2)c(NC(=O)c2cccc(Br)c2)c1 | -24 | 8981 | 2 | -3 | -1 | -1 | 3.5
CCCCNC(=O)NC1(C(F)(F)F)Oc2ccccc2O1 | -18 | 2797 | nt | nt | -1 | 2 | 2.2
CCN(CC)CCCNC(=S)N(Cc1cccs1)Cc1cc2cc3c(cc2[nH]c1=O)OCCO3 | -27 | 3530 | 7 | 15 | 7 | 4 | 1.4
COC(=O)c1ccc(NC(=O)c2cc[n+]([O-])cc2)cc1 | -12 | 3947 | -7 | 8 | -4 | 1 | -0.3
CCOC(=O)c1c(NC(=O)CSc2cccc[n+]2[O-])sc(C(=O)Nc2ccccc2)c1C | 2 | 4030 | 0 | 11 | -1 | -2 | 4.4

Profiles as entered above. Screens in order: PrP 5UTR inh | Bead autofluor | Mtb hypoxia inh | Mtb hypoxia inh growth | BJeLR lethal | ugtP null kill | Sa RN4220 lethal
Listed for COc1ccc(Cl)cc1NC(=O)NCc1ccco1 → -16 | 2318 | 15 | 7 | -3 | 4 | -1.1
Listed for CCOC(=O)c1ccc(-n2ccnc2)c(NC(=O)c2cccc(Br)c2)c1 → -24 | 8981 | 2 | -3 | -1 | -1 | 3.5
Listed for Cc1cccc2cc(COC(=O)C3CCCCC3)c(=O)[nH]c12 → -13 | ? | 13 | 11 | -3 | -4 | 7.4
Listed for O=C(CCN1C(=O)c2ccccc2C1=O)NNC(=O)c1ccc(Cl)cc1Cl → -24 | 1965 | 3 | -4 | -31 | 4 | 1.7
Listed for O=[N+]([O-])c1cccc(C2(O)COc3ccccc3O2)c1 (stereo not drawn) → 0 | 3217 | 7 | -1 | 7 | 7 | 9.4

Further compounds follow:
SMILES | PrP 5UTR inh | Bead autofluor | Mtb hypoxia inh | Mtb hypoxia inh growth | BJeLR lethal | ugtP null kill | Sa RN4220 lethal
COc1ccc(C=C(C#N)C(=O)Nc2cccc(C)c2C)cc1C(=O)O | nt | nt | -2 | 4 | nt | 1 | 4.6
C[C@H](NS(=O)(=O)c1ccccc1F)C(=O)OCC(=O)N1CCc2ccccc21 | -15 | 2621 | 5 | 3 | -3 | 5 | -6.2
CCOc1ccc(OCC)c(S(=O)(=O)N2CCCCC2C)c1 (stereo not drawn) | -4 | 16721* | -2 | 0 | -6 | -1 | 2.4
CCOc1ccc(/C=C2\SC(=S)N(C)C2=O)cc1OC | nt | nt | 4 | 8 | -1 | -5 | 3.1
COC(=O)c1ccc(Nc2cc(C)nc3ncnn23)cc1 | -20 | 4111 | 4 | 9 | -5 | 0 | 3.8
Cc1ccc(S(=O)(=O)N2CCN(C(=O)c3ccc(N4CCCCC4)c([N+](=O)[O-])c3)CC2)cc1 | 5 | 4669 | -12 | -11 | 3 | -7 | -7.8
Fc1ccccc1C=NN1CCN(Cc2ccccc2Cl)CC1 | nt | nt | 3 | 11 | nt | 36 | -1.0
CN(C)S(=O)(=O)c1cc(NC(=O)COC(=O)Cc2ccc(Br)cc2)ccc1Cl | -14 | 10451 | 15 | 7 | -3 | -4 | 2.8

Compound activity as filed in PubChem BioAssay.
